Source: PubChem BioAssay (several laboratories)
eIF4H inh – inhibitors of RNA binding by human eIF4H; Q15056; eIF4H fluorescence polarization binding assay; 290,000 compounds, 0.94% hits; AID 2012; inhibition, % at 35 µM;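 active = 50% or more with normal probe brightness, or confirmed in later tests; about a fifth of its hits are not listed in these tables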;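 note: calls also rest on retests at 20 µM and on dose response follow-up; 0% = protein and probe with vehicle and 100% = probe without protein; strong numbers were not always called active; many hits fall short of the cut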
UUG fidelity – modulators of start codon recognition fidelity in yeast; activity score, % at 18.7 µM; 350,000 compounds, 0.13% hits; S. cerevisiae UUG-firefly luciferase reporter, luminescence/redox ratio;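 active = replicate mean at a twofold rise or more, about +100% in these data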;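 note: firefly luciferase made from a UUG start codon reports start codon fidelity; reporter light over untreated wells divided by growth signal over untreated wells; some hits fall short of that in this replicate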
CSC inhib – blocks cancer stem cells. cancer stem cell-like cells viability, luminescence. inhibition, % at 7.5 µM. 300,000 compounds, 1.1% hits. AID 2717;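 active = mean at 75% or more and at least half the replicates too; tested in HMLE shEcad cells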;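 note: 0% = median of negative and 100% = median of positive control wells; the first replicate is given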
MT1-MMP act inh – MT1-MMP (human) activation inhibition; P50281; HT1080 RFP-PRO-GFP cells, GFP/RFP ratio fluorescence, overnight; percent of plate control window, DMSO zero; GFP/RFP ratio change, % at 20 µM; 360,000 compounds, 0.061% hits;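 active = GFP/RFP ratio change of at least 30% with cell ATP level not reduced by more than half and red fluorescence within 50% of control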; note: strong numbers were not always called active
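Assay system: RFP-PRO-GFP reporter HT1080 cells; read-out basis: GFP/RFP fluorescence ratio; benchmarks: DMSO wells and RFP-L50D-GFP cells; doses: 20 µM single dose, 1% DMSO; schedule: overnight cell settling, then overnight compound exposure, 37 °C, 5% CO2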
PABP FP inh – PABP-poly(A) binding inhibition; PABP-poly(A) RNA binding, fluorescence polarization; P11940; 290,000 compounds, 1% hits; inhibition, % at 35 µM;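 active = 50% or more with normal probe brightness, or confirmed in later tests; about a fifth of its hits are not listed in these tables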;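 note: calls also rest on retests at 20 µM and on dose response follow-up; controls were probe without protein and protein plus probe with vehicle; some compounds called inactive have numbers as strong as hits; many hits fall short of the cut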
Env fusion inh – blocks HIV Env-driven cell-cell fusion; HeLa-JRFL Env/CEM21 cell fusion, luciferase; inhibition, % at 12.3 µM; 360,000 compounds, 1.1% hits;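 active = mean replicate inhibition score of at least 50 and every replicate individually at or above 50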;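 note: 0% = plate neutral controls and 100% = maraviroc near 300 nM; one replicate is shown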
Rce1 inhib – inhibitors of yeast Ras-converting enzyme | yeast membranes, quenched prenylated peptide cleavage fluorescence | calls only | 290,000 compounds, 0.27% hits;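 active = fall in fluorescence gain of 50% or more versus controls, with final raw signal at or below 3038400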;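 note: plate controls were neutral control wells for no effect and wells lacking membranes for full effect; tested at 10 µM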
Target sequence (Q03530 whole entry, looked up): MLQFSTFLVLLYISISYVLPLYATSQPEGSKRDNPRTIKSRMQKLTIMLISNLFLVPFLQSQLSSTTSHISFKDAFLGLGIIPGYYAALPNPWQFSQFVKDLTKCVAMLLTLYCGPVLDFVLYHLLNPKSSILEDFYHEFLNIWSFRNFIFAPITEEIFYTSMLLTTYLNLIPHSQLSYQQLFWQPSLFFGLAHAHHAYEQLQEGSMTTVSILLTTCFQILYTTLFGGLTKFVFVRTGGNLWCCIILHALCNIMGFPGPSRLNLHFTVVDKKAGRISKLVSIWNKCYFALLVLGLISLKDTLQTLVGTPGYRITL
eIF4H inh retest – further read-out of eIF4H inh, marked with its call; inhibition, %; compound at 20 µM; confirmation average;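 mean of two retest wells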
PABP FP inh retest – also measured in PABP FP inh; calls as there; inhibition, %; compound at 20 µM; confirmation repeats;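 mean of two retest wells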
MT1-MMP act inh RFP – second read-out of MT1-MMP act inh, no call of its own (marks repeat the call); RFP signal change, %; measured here: RFP expression control read;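 0 = vehicle wells; hits needed this value within 50% of zero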
Starred values were filed as active, the others as inactive; i = inactive; / = not tested or not shown.

SMILES	eIF4H inh	UUG fidelity	CSC inhib	MT1-MMP act inh	MT1-MMP act inh RFP	PABP FP inh	Env fusion inh	Rce1 inhib	others
O=C(CSc1cccc2cccnc12)Nc1ccc(S(=O)(=O)N2CCOCC2)cc1	-7	-5	-3	6	-1	6	-4	i
COc1ccc(C(=O)CSc2n[nH]c(C)n2)cc1[N+](=O)[O-]	-3	/	0	5	4	-16	-4	i
C/C(=N\NC(=O)CSc1nc(C)cc(C)n1)c1ccc2c(c1)OCCO2	6	/	4	6	5	-4	-6	i
CC(C)[C@H](NC(=O)N1c2ccccc2NC(=O)[C@@H]1C(C)C)C(=O)N[C@@H](Cc1c[nH]c2ccccc12)C(=O)O	11	-11	-5	5	5	21	/	i
O=C(NCCN1CCOCC1)c1cc(Cl)ccc1[N+](=O)[O-]	2	/	-16	/	/	9	-44	i
Cn1nc(C(F)(F)F)c(C#N)c1N1CCN(c2ccccc2)CC1	2	-13	0	-5	-10	-6	/	i
COc1cc(C(=S)N2CCC(C(N)=O)CC2)ccc1O	-6	-5	-10	4	4	0	34	/
COc1ccc(-c2cc3ccccc3s2)cc1[C@H]1[C@H]2C=CC[C@@H](C)[C@@H]2C(=O)N1Cc1ccccc1	-6	-2	28	3	-7	4	-20	i
CCOC(=O)C1=C(C)NC(C)=C(C(=O)OCC)C1c1ccc(O)cc1	7.4*	-19	-12	0	0	82*	/	i	eIF4H inh retest=95*;PABP FP inh retest=89*
O=C(Nc1c2c(nn1-c1ccccc1)CS(=O)(=O)C2)c1ccccc1Br	4	-6	-9	-3	-1	7	-5	i
COc1ccc(N(CC(=O)Nc2ccc(C(C)C)cc2)S(=O)(=O)c2c(C)noc2C)cc1	10	-4	30	1	-8	-4	14	i
O=C(COC(=O)/C=C/c1ccc(Cl)cc1Cl)Nc1cccc(S(=O)(=O)NC2=NCCC2)c1	/	-1	/	2	5	/	-2	/
O=C(CCn1c(=O)oc2ccc(Cl)cc21)N1CCN(c2ccccc2)CC1	-10	6	3	-1	1	3	-12	i
O=C1CCN(Cc2ccccc2)C=C1c1cccc(O)c1	/	1	-5	1	-1	/	-3	/
Cc1ccn2c(NC(=O)c3ccccc3)c(-c3ccccc3)nc2c1	2	-9	-8	5	2	2	-8	i
COc1ccc(C(=O)Nc2cc(C)on2)cc1[N+](=O)[O-]	4	/	-6	0	-1	3	-14	i
COc1ccc(-c2nc(SCC(=O)Nc3cccc(S(N)(=O)=O)c3)n[nH]2)cc1	/	-11	/	4	-3	/	-46	/
O=C(c1ccc(Cl)cc1)C(CN1CCCC1)c1ccccc1 (centres undefined)	3	2	35	-8	-29	11	-412	i
Cc1ccc(NC2c3ccccc3C(=O)N2c2cccnc2)cc1 (centres undefined)	1	-18	/	-2	-4	4	17	i
O=C(NCc1ccc2c(c1)OCO2)c1cnc2ccccn2c1=O	-8	-7	/	-2	4	3	-67	i
C=CCOc1ccc(CNc2nccs2)cc1OCC	-5	-8	3	-2	-3	-8	/	i
C/C(=N/NC(=O)CNC(=O)COc1ccccc1)c1ccco1	0	/	1	3	2	12	13	i
CC1(C)CC(OC(=O)c2ccccc2)CC(C)(C)N1	1	-15	2	6	1	11	/	i
COc1ccc(-c2cc3ccccc3oc2=O)cc1	/	-24	8	-1	-2	/	-61	i
CC1CCc2c(sc(NC(=O)CSc3nc4c(c(C(F)(F)F)n3)CCc3ccccc3-4)c2C(N)=O)C1 (centres undefined)	-2	-1	-9	-2	-1	3	/	i
COc1ccc(CNC(=O)c2cnc(C)cn2)c(OC)c1	7	-1	/	-3	1	8	-49	i
COc1cc2c(cc1OC)C(CNC(=O)C=Cc1cc(OC)c(OC)c(OC)c1)C2 (centres undefined)	/	-24	/	2	6	/	-28	/
Cc1cc(=O)oc2cc(OCC(=O)NCC3CCC(C(=O)O)CC3)ccc12 (centres undefined)	-2	0	-4	-3	3	14	/	i
O=C(Cc1ccccc1)N1CCC2(CC1)NCCc1[nH]cnc12	-9	-8	-6	-1	2	8	-16	i
CCOC(=O)C(C(=O)OCC)c1c([N+](=O)[O-])c(=O)n2c3c(cccc13)CCC2	1	-9	-8	5	-4	26	6	i
O=C(c1ccc2c(c1)OCO2)N1CCN=C1SCc1ccccc1	-8	-13	-1	-6	-2	-16	19	i
O=C(CCN1C(=O)c2ccccc2C1=O)Nc1cccc(F)c1	1	6	-9	5	-1	11	/	i
CCOC(=O)CSC1=C(C#N)C(c2ccccc2OCC)C(C(=O)OCC)C(=O)N1 (centres undefined)	-8	27	0	-3	-4	-6	-31	i
COc1ccc(C(CC(=O)Nc2ccccn2)N2Cc3ccccc3C2=O)cc1 (centres undefined)	-12	-12	/	1	2	-6	9	i
CCOC(=O)C(C)Sc1nc(-c2cccs2)ccc1C#N (centres undefined)	-2	-14	0	-5	1	17	-29	i
O=S(=O)(NC1c2cccc3cccc(c23)C1N1CCN(CCO)CC1)c1ccccc1 (centres undefined)	13	-18	/	-13	-11	13	/	i
O/N=C/c1ccc2ccccc2n1	1	-12	-9	0	3	-1	-29	i
CCCN(C(=O)c1cc(Cl)nc2ccccc12)c1c(N)n(Cc2ccccc2)c(=O)[nH]c1=O	/	-25	-13	-1	3	/	-1	/
CCNC(=O)COC(=O)c1cc(=O)[nH]c2ccccc12	1	-9	-8	12	-2	-4	-43	i
O=C(c1nc2ccc(Cl)cn2c1CNCC[C@@H]1C[C@@H]2C=C[C@H]1C2)N1CCCCCCC1	18	-6	3	-5	-3	-6	17	i

As a short view, part of the list above:
SMILES	eIF4H inh	UUG fidelity	CSC inhib	MT1-MMP act inh	MT1-MMP act inh RFP	PABP FP inh	Env fusion inh	Rce1 inhib	others
O=C(c1ccc2c(c1)OCO2)N1CCN=C1SCc1ccccc1	-8	-13	-1	-6	-2	-16	19	i
O=C(CCN1C(=O)c2ccccc2C1=O)Nc1cccc(F)c1	1	6	-9	5	-1	11	/	i

Next part
SMILES	eIF4H inh	UUG fidelity	CSC inhib	MT1-MMP act inh	MT1-MMP act inh RFP	PABP FP inh	Env fusion inh	Rce1 inhib	others
CCOC(=O)N1CCC(Nc2cc(C)nc3c(-c4ccccc4OC)c(C)nn23)CC1	-8	-8	-9	3	-8	-15	25	i
COc1ccc(C2=NN(C(=O)CSc3ncccn3)C(c3ccc(OC)cc3)C2)cc1 (centres undefined)	1	/	-10	1	-3	70	7	i	eIF4H inh retest=0;PABP FP inh retest=5
CCCCCCC(CC(=O)NCc1cccnc1)CC(=O)NCc1cccnc1	13	12	-16	-1	-1	4	-22	i
O=C(c1cc(C(=O)N2CCCC2)cc([N+](=O)[O-])c1)N1CCCC1	-9	-9	-3	1	6	-2	2	i
Cc1ccccc1Nc1ncccc1C(=O)N1CCOCC1	16	-9	-2	4	9	2	-57	i
CCSc1ccccc1C(=O)NCCCn1ccnc1	8	-23	-14	0	6	20	-92	i
CCCCCC(=O)NC(=S)NC1C2CC3CC(C2)CC1C3 (centres undefined)	2	/	57	3	-4	-3	15	i
Cc1cc(C)c2nc3nc(C)c(C)cc3c(N)c2c1	10	/	/	-6	4	8	-49	i
C=C(C)Cn1c(COc2ccccc2)nnc1SCC(=O)O	-12	/	-6	7	7	1	/	i
COc1ccc(CC(=O)NCc2cccc(Cl)c2)cc1S(=O)(=O)N1CCOCC1	/	-6	/	3	6	/	0	/
COc1ccc(/C=C2\CN(Cc3ccccc3)C/C(=C\c3ccc(OC)cc3)C2=O)cc1	-5	/	67	-6	-11	-13	-22	/
Cc1ccc(OCCNC(=O)c2cc(C(=O)NCCOc3ccc(C)cc3)cc([N+](=O)[O-])c2)cc1	2	-7	-19	-8	-16	2	/	i
CCOc1ccc(CCNC(=O)COC(=O)COc2ccc(C(C)=O)cc2)cc1OCC	/	4	2	5	6	/	1	i
Cn1c(=O)c2c(nc(Cl)n2Cc2ccncc2)n(C)c1=O	-4	-12	2	4	2	-1	-4	i
CCC(C)NC(=O)c1cccc(C)c1 (centres undefined)	-2	-13	-11	-3	1	-1	-5	i
Cc1ccccc1S(=O)(=O)Oc1cccc2c(O)cccc12	-6	13	32	0	4	-3	4	i
CC12CCC(C(=O)N/N=C/c3ccc(O)cc3)(OC1=O)C2(C)C (centres undefined)	5	-13	2	3	3	-4	9	i
CC(=O)c1cccc(Nc2cc(C)nc3c(C)cccc23)c1	-1	/	-6	3	0	4	-62	i
CCCCc1nnc(NC(=O)COc2ccc3c(C)cc(=O)oc3c2)s1	-6	/	-3	/	/	-3	18	i
O=C(NCCNC(=O)C(c1ccccc1)c1ccccc1)c1ccco1	0	10	-2	-2	-1	-1	6	i

Some of these compounds in order of count of non-hydrogen atoms, smallest number first:
SMILES	eIF4H inh	UUG fidelity	CSC inhib	MT1-MMP act inh	MT1-MMP act inh RFP	PABP FP inh	Env fusion inh	Rce1 inhib	others
CCC(C)NC(=O)c1cccc(C)c1 (centres undefined)	-2	-13	-11	-3	1	-1	-5	i
Cn1c(=O)c2c(nc(Cl)n2Cc2ccncc2)n(C)c1=O	-4	-12	2	4	2	-1	-4	i
Cc1ccccc1S(=O)(=O)Oc1cccc2c(O)cccc12	-6	13	32	0	4	-3	4	i
O=C(NCCNC(=O)C(c1ccccc1)c1ccccc1)c1ccco1	0	10	-2	-2	-1	-1	6	i

Remaining list, next part:
SMILES	eIF4H inh	UUG fidelity	CSC inhib	MT1-MMP act inh	MT1-MMP act inh RFP	PABP FP inh	Env fusion inh	Rce1 inhib	others
Cc1ccc(C2=N/C(=C\c3c(C)nn(-c4ccccc4)c3N3CCCC3)C(=O)O2)cc1	-6	-23	-1	0	3	13	6	i
CCOc1ccc(CCNC(=O)CSc2nc3ncc(Cl)cc3[nH]2)cc1OCC	-4	-7	-2	-1	-6	-4	-4	i
O=C(CCCn1c(=S)[nH]c2cc3c(cc2c1=O)OCO3)NCc1cccc(Cl)c1	-2	-6	-11	1	-1	1	-3	i
N#CC1=C(N)SC(N)=C(C#N)C1c1ccc(C(F)(F)F)cc1	100	/	34	/	/	90	/	i	eIF4H inh retest=7;PABP FP inh retest=-5
CCOC(=O)NC(=O)COC(=O)c1cccc2ccccc12	3	/	10	-5	0	-46	-12	i
CCO[C@H]1OC(C(=O)N2CCN(C)CC2)=C[C@@H](C(C)(C)C)[C@@H]1CCCO	-2	-3	9	2	4	4	6	i
CCCN(CC(=O)Nc1ccccc1OC)C(=O)c1ccccn1	/	-18	-9	2	5	/	2	/
COc1ccc(N2CCN(C(=O)CCS(=O)(=O)c3cccc4nsnc34)CC2)cc1	-12	2	-4	-5	0	3	22	i
CN(CCCCCCCCC(=O)/C=N/O)Cc1ccccc1	0	-2	2	0	0	6	/	i
Cc1cccc(OCCCC(=O)Nc2ccc(Br)cc2)c1	4	-1	29	12	13	-2	-93	i
O=C(Nc1cccn(Cc2ccccc2Cl)c1=O)NC1CCCCC1	-16	/	-9	-37	-37	-2	-4	i
Cc1ccc(S(=O)(=O)N2C[C@H]3N(C(=O)OC(C)C)N(C(=O)OC(C)C)C[C@H](OC(=O)Nc4c(C)noc4C)[C@@]3(O)C2)cc1	/	-3	/	1	3	/	-80	/
CCc1c(C)sc(NC(=O)c2ccoc2C)c1C(N)=O	-2	-17	-4	-5	5	2	-16	/
CC(=O)Nc1ccc(NC(=O)COC(=O)[C@@H]2CCCN2C(=O)c2cccs2)cc1	/	-15	-5	4	1	/	/	/
COc1ccc(Cl)cc1S(=O)(=O)NCc1cccnc1	-10	-5	-3	4	5	-6	-10	i
COC(=O)C1=C(C(=O)OC)[C@]2([C@H]3CCCCN[C@@H](Cc4ccccc4)C(=O)N3Cc3ccccc3)C=C[C@H]1O2	/	-19	/	-4	-25	/	65*	/
CC(C)Cn1c(SCC(=O)c2c(N)n(C)c(=O)n(C)c2=O)nc2ccccc21	4	4	-28	-3	-6	-12	/	i
COc1cccc(/C=N\NC(=O)c2ccc(C)nc2)c1	-8	-7	-3	-4	-1	-4	-2	i
COc1ccccc1OCc1ccc(C(=O)N2CCN3CCCC3C2)cc1 (centres undefined)	-1	-7	-14	-4	-3	6	/	i
